LANA-H2B inh – blocks KSHV LANA binding to histone H2A/H2B | inhibition, % (test concentration not listed) | cell-free LANA-H2A/H2B peptide, fluorescence polarization | Q9QR71 | 0.6% of 320,000 active; in the data active = inhibition mostly above about 10%, no sharp cut-off; inactive = mostly below about 6.7%;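 also: stock transfer was 7.5 nL into about 10 µL; 0% = median of vehicle wells and 100% = median of positive control wells; one replicate is shown; the record names a cut of 25% in any replicate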
Calb FLC – C. albicans growth modulation with fluconazole; C. albicans CaCi-2 (fluconazole-resistant clinical isolate) + fluconazole, Alamar Blue growth, 48 h; growth inhibition, % (no concentration beside the values); 0.57% of 300,000 active; AID 1979;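 active = most replicates above 75%; inconclusive = exactly half above 75%; inactive = most below 75%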;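 also: all wells also contain fluconazole at 8 µg/ml as a sub-toxic cotreatment; 0% = median of DMSO wells and 100% = median of geldanamycin control wells; wells of about 8 µL received 7.5 nL stock; the first replicate is given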
rRNA inh HTS – inhibitors of bacterial rRNA selective over humanized ribosomes; 1.6% of 350,000 active; E. coli WT GFP vs humanized-ribosome RFP mutants, fluorescence, 24 h; stronger effect = lower value; DMSO median 0, no signal -100; GFP signal change (wild-type ribosome), % (test concentration not listed);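 active = significant combined selectivity score with lowered wild-type GFP, culture density cut under 30%, mutant RFP and density less affected; inactive = any of these conditions unmet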; also: one replicate is shown; some compounds called inactive have numbers as strong as hits
T cruzi repl – T. cruzi replication inhibition | T. cruzi beta-gal in NIH3T3, luminescence, 90 h | inhibition, % (concentration not given with the values) | 1.4% of 300,000 active;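 active = mean inhibition across valid replicates above about 55%, limit read from the data; inconclusive = mean below that limit but half or more replicates reach it; inactive = mean below it, under half of replicates reach it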;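 also: signal also drops with host cell toxicity which is not excluded here; 0% = plate median of DMSO wells and 100% = zero luminescence signal; higher percent means less beta-gal luminescence so fewer parasites; stock transfer was 50 nL into about 50 µL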
Beta cell apopt – blocks beta cell apoptosis | 0.8% of 300,000 active | protection from apoptosis, % (concentration not given with the values) | AID 435005 | INS-1E cytokine-induced death, ATP luminescence, 48 h; percent of positive-control rescue, neutral wells zero;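 active = all replicates at 75% or more, or half of them and the mean; inconclusive = half reach 75% but not the mean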;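 also: 0% = cytokine-treated negative control wells and 100% = positive control rescue; higher means more ATP so stronger rescue from cytokine killing; wells of about 40 µL received 100 nL stock; the first replicate is given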
Bfl-1 A1 inh – inhibitors of the anti-apoptotic protein A1, read as caspase activation | MEF A1-2A-BIM cells, Caspase-Glo 3/7 luminescence, 3 h; percent of clofoctol response, vehicle zero | AID 2462 | 0.066% of 330,000 active | caspase activation, % (no concentration beside the values);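 active = over half of replicate activation scores above 10%, or exactly half above 10 with the replicate mean above 10; inconclusive = replicate mean below 10 yet half the replicates above 10; inactive = over half of replicates below 10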;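 also: wells of about 30 µL received 50 nL stock; many hits fall short of the cut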
B2AR ag – human beta-2 adrenergic receptor agonism by FAP | Am2.2-beta2AR cells, FAP receptor internalization, flow cytometry; reference of the scale not given here | response, % (concentration not given with the values) | 0.43% of 340,000 active | P07550;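 active = response above a set limit, near 3 SD of response in nonfluorescent compounds, cut at about 42% in these data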;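 also: stock transfer was 100 nL into about 11 µL; a reference agonist was the positive control; negative values mostly stem from fluorescent compounds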
Target sequence (P07550 whole entry, looked up): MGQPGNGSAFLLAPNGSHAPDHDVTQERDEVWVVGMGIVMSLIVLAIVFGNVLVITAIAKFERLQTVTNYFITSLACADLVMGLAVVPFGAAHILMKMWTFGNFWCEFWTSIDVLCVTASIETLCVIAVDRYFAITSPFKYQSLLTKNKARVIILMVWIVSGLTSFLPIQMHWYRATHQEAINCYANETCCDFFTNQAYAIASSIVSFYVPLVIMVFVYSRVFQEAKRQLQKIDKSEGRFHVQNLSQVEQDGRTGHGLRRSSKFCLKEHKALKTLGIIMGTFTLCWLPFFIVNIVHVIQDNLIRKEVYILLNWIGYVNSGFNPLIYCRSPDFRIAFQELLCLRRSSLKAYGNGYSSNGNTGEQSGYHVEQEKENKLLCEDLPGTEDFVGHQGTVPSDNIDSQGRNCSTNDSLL
ALR inh – inhibitors of human sulfhydryl oxidase ALR; purified ALR, DTT oxidation, H2O2 HRP-luminol luminescence; inhibition, % (test concentration not listed); 3.8% of 290,000 active;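 active = mean and each replicate at 75% or more; inconclusive = only one of the two met; inactive = neither met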;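 also: stock transfer was 7.5 nL into about 7.5 µL; 0% = neutral wells and 100% = wells with inactivated enzyme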
Target sequence (P55789 whole entry, looked up): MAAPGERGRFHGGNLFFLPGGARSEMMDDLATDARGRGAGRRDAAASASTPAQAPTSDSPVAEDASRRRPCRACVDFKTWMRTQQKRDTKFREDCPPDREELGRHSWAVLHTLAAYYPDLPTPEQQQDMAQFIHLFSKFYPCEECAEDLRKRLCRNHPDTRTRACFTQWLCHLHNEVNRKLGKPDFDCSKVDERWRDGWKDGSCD
rRNA inh HTS OD600 – second read-out of rRNA inh HTS, no call of its own (marks repeat the call); OD600 change, %; measured here: OD600 growth;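 optical density of the mix in the first replicate; 0 = DMSO median and -100 = no signal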
rRNA inh HTS RFP – further read-out of rRNA inh HTS, marked with its call; RFP signal change, %; measured here: RFP humanized mutant strains;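 first replicate; 0 = DMSO median and -100 = no signal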
* hit, by the source's call; ? = inconclusive; nt = no result given; & = joins results of further samples. Some of the compounds tested, so the mix of outcomes need not match the whole.

SMILES	LANA-H2B inh	Calb FLC	rRNA inh HTS	rRNA inh HTS OD600	rRNA inh HTS RFP	T cruzi repl	Beta cell apopt	Bfl-1 A1 inh	B2AR ag	ALR inh
Cn1c(/C=C/N(Cc2ccccc2)c2ccccc2)c([N+](=O)[O-])c(=O)n(C)c1=O	2.4	9	4	5	-0.6	3	8	-0.6	-15	-4
COc1cccc2cc(C(=O)N3CCc4ccccc43)c(=O)oc12	2.6	-9	nt	nt	nt	-6	-1	0.3	11	0
COc1ccc(C2C(C(N)=O)=C(C)Nc3nc(-c4ccccc4)nn32)cc1OC (stereo not drawn)	-0.1	10	1	5	0.9	2	-7	-0.8	0	-11
COc1ccc2[nH]c(C(=O)O)c(NC(=O)c3cc(OC)c(OC)c(OC)c3)c2c1	4.3	5	6	13	-1.9	-3	-5	0.4	-10	?
COC(=O)c1c(-c2ccc(C)cc2)csc1NC(=O)C1CC=CCC1C(=O)O (stereo not drawn)	-5.7	-6	nt	nt	nt	-4	-4	0.0	7	46
COc1cc(CNC2CCCC2)c(Br)cc1OCc1ccccc1	5.1	-42	-19	-27	2.3	34	11	-0.1	9	-14
COc1ccccc1COc1ccc2c(C)c(CCC(=O)O)c(=O)oc2c1C	5.1	5	-16	-18	-0.2	-6	-3	-1.5	2	-4
CC1N/C(=C\C(=O)c2ccccc2)N(O)C1(C)C (stereo not drawn)	2.6	16	nt	nt	nt	-39	0	0.0	-4	14
O=S(=O)(Nc1ccc(Cl)cn1)c1ccc(Cl)cc1	-3.8	57	6	-6	-3.3	-4	3	-1.1	1	3
Cc1c(Cl)cnc(NC(=O)COC(=O)C2CCCC2)c1Cl	1.4	nt	4	5	-0.1	nt	-2	-0.5	-2	nt
CC1=C/C(=C(\c2cc(C)c(O)c(Br)c2)c2ccccc2S(=O)(=O)O)C=C(Br)C1=O	-6.4	17	-41	225	36	-3	42	-1.1	17	nt
CC(C)CNC(=O)c1ccc(C2SCC(=O)N2Cc2ccccc2)cc1 (stereo not drawn)	-2.8	26	3	1	2.3	36	0	0.0	8	-7
Cc1ccc(-c2cccc(CN3CCN(C4CCN(C(C)C)CC4)C(CCO)C3)c2)o1 (stereo not drawn)	-0.1	-4	9	7	2.2	32	1	0.3	-4	0
COc1ccc(-n2nc(C(=O)NCC(=O)N3CCC(C)CC3)c3ccccc3c2=O)c(OC)c1	0.7	41	-2	-6	-3.7	3	-1	-0.6	-6	-1
c1ccc(CC2CCN(c3nnnn3-c3ccccc3)CC2)cc1	-1.5	-2	nt	nt	nt	6	1	0.0	3	-6

For reference, some entries already given.
SMILES	LANA-H2B inh	Calb FLC	rRNA inh HTS	rRNA inh HTS OD600	rRNA inh HTS RFP	T cruzi repl	Beta cell apopt	Bfl-1 A1 inh	B2AR ag	ALR inh
CC(C)CNC(=O)c1ccc(C2SCC(=O)N2Cc2ccccc2)cc1 (stereo not drawn)	-2.8	26	3	1	2.3	36	0	0.0	8	-7
Cc1ccc(-c2cccc(CN3CCN(C4CCN(C(C)C)CC4)C(CCO)C3)c2)o1 (stereo not drawn)	-0.1	-4	9	7	2.2	32	1	0.3	-4	0

More results follow.
SMILES	LANA-H2B inh	Calb FLC	rRNA inh HTS	rRNA inh HTS OD600	rRNA inh HTS RFP	T cruzi repl	Beta cell apopt	Bfl-1 A1 inh	B2AR ag	ALR inh
CN1CCN(C(=O)c2ccc3c(=O)n4c(nc3c2)CCCCC4)CC1	0.8	48	nt	nt	nt	8	-6	1.5	-3	0
CCC(C)NC(=O)c1cn(-c2cccc(C)n2)cn1 (stereo not drawn)	6.2	19	nt	nt	nt	-2	-2	0.7	-1	-6
CCc1cccc(C)c1NC(=O)COC(=O)C(NS(=O)(=O)c1ccc(Cl)cc1)C(C)O (stereo not drawn)	-3.6	40	-6	-2	-7.9	-7	nt	0.3	1	-2
O=C(C1=C[C@H](c2ccc(Br)cc2)C[C@H](OCCCCO)O1)N1CCN(Cc2ccccc2)CC1	-4.8	0	-38	-46	6.6	56*	-1	2.0	-6	-8
O=S(=O)(NCc1cccs1)c1cccc2cccnc12	1.7	20	nt	nt	nt	-3	7	0.4	0	-19
COc1cc(C2c3c(c(C)c(C)oc3=O)Oc3c(C)c(C)oc(=O)c32)ccc1OS(=O)(=O)c1ccc(C)cc1	-0.7	nt	-8	3	-5.2	nt	4	-1.3	2	3
Cc1c(Cl)cccc1NC(=O)Cn1c(-c2ccc(F)cc2)noc1=O	0.9	1	21	12	14	-7	3	0.1	-4	-7
CC(C)C(c1nnnn1Cc1ccc(F)cc1)N1CCN(C2CCCC2)CC1 (stereo not drawn)	0.8	-12	11	-2	-7.2	6	-4	-0.4	0	nt
CCN(CC)C(=O)c1c[nH]c2ccc(S(=O)(=O)Nc3cc(C)cc(C)c3)cc2c1=O	-6.8	nt	nt	nt	nt	nt	nt	1.0	1	2
Cc1ccc(CSc2nnc(-c3ccncc3)n2C)cc1	-5.3	-10	nt	nt	nt	-7	4	0.2	-1	-1
COCCNC(=O)CSc1nnc(NC(=O)C2CC(=O)N(c3ccccc3OC)C2)s1 (stereo not drawn)	4.4	12	4	9	-0.4	0	-6	-0.2	-2	5
COc1ccc(C(=O)NCC(=O)OCc2csc(-c3ccccc3)n2)cc1	11	-14	-4	3	2.5	-19	-17	-0.1	-4	-4
COc1ccc(OCCSc2nnc(-c3ccccc3)n2N)cc1	3.1	nt	nt	nt	nt	-3	4	0.3	-9	-2
CC(C)(C)c1ccc(/C=C2\SC(=O)N=C2N)cc1	1.5	0	7	11	1.2	25	nt	0.4	4	17
CCOc1ccc(N(CC(=O)NCCSCc2ccccc2)S(=O)(=O)c2ccccc2)cc1	4.1	-1	3	7	-3.8	31	nt	1.2	-3	-14
CC1CCc2sc(C(=O)OCC(=O)NCc3ccc(F)cc3)cc2C1 (stereo not drawn)	-2.5	-8	nt	nt	nt	0	-2	-0.3	15	nt
COc1ccc(-c2sc3cc4c(cc3c2C#CC2(O)CCCCC2)OCO4)cc1	-1.3	nt	13	10	2.8	nt	-9	-1.4	10	-22
CCOC(=S)NC(=O)c1sc2ccccc2c1Cl	-2.5	20	nt	nt	nt	-41	-11	-1.4	10	7
Cc1ccc(-c2n[nH]c(=S)n2/N=C/c2ccncc2)cc1	6.2	?	20	27	-0.1	-6	-19	-0.4	2	-6
O=C(CCC(=O)N1CCCCCC1)Nc1ccc([N+](=O)[O-])cc1	1.6	-5	25	22	4.8	-2	-8	-1.9	0	14
Cc1cc(C)cc(NS(=O)(=O)c2cnc(Cl)c(Cl)c2)c1	-6.6	28	nt	nt	nt	-9	-7	-0.3	-3	8
O=C(NCc1ccccn1)Nc1ccc(Cl)cc1Cl	4.3	3	3	4	-0.4	-5	-1	-1.0	-8	-6
Cc1c(Cl)cccc1NC(=O)C(=O)NNC(=O)c1ccccc1F	1.3	-4	-45	-71	-13	-7	-3	-0.7	2	4
Cc1ccc2oc(=O)c(/C=C(\O)CC(C)C)nc2c1	3.5	31	nt	nt	nt	2	-13	0.2	-1	82*
O=C(N/N=C/c1cc(Cl)cc(Cl)c1O)c1ccncc1	-8.3	2	-19*	-4.2*	-2.2*	?	51	-0.8	-1	1
Cc1[nH]c(=S)c(C#N)c(C)c1Cc1ccc(Cl)cc1Cl	-1.5	6	5	5	-0.5	-4	-3	?	-10	2
CCOc1cccc(C(=O)Nc2cnn(Cc3ccccc3)c2)c1	3.5	-2	nt	nt	nt	-6	-1	0.7	1	4
CC(=O)C1=C(C)NC(SCc2ccc(C#N)cc2)=C(C#N)C1c1ccco1 (stereo not drawn)	-3.1	nt	2	-7	0.9	nt	-4	0.7	9	33
Cc1ccc(-c2noc(C3CCCN(C(=O)c4ccccc4Br)C3)n2)o1 (stereo not drawn)	1.3	-3	1	4	0.5	14	1	-0.5	1	-25
Nc1ccc(C(=O)Nc2ccc(OC(F)(F)C(F)F)c(NC(=O)c3ccc(N)cc3)c2)cc1	4.7	-11	-13	0	-6.2	15	0	-0.4	22	-7
COC(C(=O)Nc1ccnn1C1CCN(Cc2cccc(C)n2)CC1)c1ccccc1 (stereo not drawn)	2.7	5	9	16	1.5	1	-1	0.5	3	-9
Cc1ccc(C(=O)NC(Cc2c[nH]c3ccccc23)C(=O)O)cc1 (stereo not drawn)	-5.3	1	nt	nt	nt	-14	-5	0.6	0	-2
O=C(CN(Cc1ccco1)C(=O)c1ccccc1F)Nc1ccccc1C(F)(F)F	-3.9	nt	9	10	7.4	nt	-4	-0.2	2	14
OC1C(O)C(O)C(O)C(O)C1O (stereo not drawn)	-1.9&-3.1&1.5	-5&-5&-13	8	17	5.1	-14&0&-17	3&-1&0	-3.2&1.7&0.0	2&0&-9	1&6&-8
CC(C)C(c1nnnn1C(C)(C)C)N1CCN(Cc2cccnc2)CC1 (stereo not drawn)	0.1	4	16	5	-6.7	-6	-4	-0.1	22	-1
CC(=O)c1ccc(NC(=S)NC(NC(=O)c2ccco2)C(Cl)(Cl)Cl)cc1 (stereo not drawn)	0.7	2	nt	nt	nt	14	-2	0.2	6	16
COc1ccc(NC2C=CS(=O)(=O)C2)c(OC)c1 (stereo not drawn)	0.4	2	11	5	49	-4	0	0.1	13	85*
Cc1cc([N+](=O)[O-])ccc1NC(=O)CCC(=O)N1CCCCC1	-1.9	0	-1	-1	-1.4	-4	-3	0.8	-2	-4
C=C(C)CSc1nc2sc3c(c2c(=O)n1-c1ccccc1)CCN(C)C3	-0.2	-10	3	1	3.2	55*	1	-0.3	0	20
CN1CCCN(C(=O)CNC(=O)c2ccccc2F)CC1	3.7	nt	3	2	-3.2	nt	-3	0.4	6	nt
Cc1ccc(S(=O)(=O)N2CC(O)CC2C(=O)NCc2ccc3c(c2)OCO3)cc1 (stereo not drawn)	1.9	-10	8	1	3.3	-11	2	0.6	-1	0
Cc1cccc(C(=O)O/N=C/c2ccc(Br)cc2)c1	0.9	-12	9	11	-4.7	-6	-6	0.1	4	-6

Five compounds from above, ordered by molecular weight, low to high.
SMILES	LANA-H2B inh	Calb FLC	rRNA inh HTS	rRNA inh HTS OD600	rRNA inh HTS RFP	T cruzi repl	Beta cell apopt	Bfl-1 A1 inh	B2AR ag	ALR inh
O=S(=O)(NCc1cccs1)c1cccc2cccnc12	1.7	20	nt	nt	nt	-3	7	0.4	0	-19
CC(C)C(c1nnnn1C(C)(C)C)N1CCN(Cc2cccnc2)CC1 (stereo not drawn)	0.1	4	16	5	-6.7	-6	-4	-0.1	22	-1
CC(C)CNC(=O)c1ccc(C2SCC(=O)N2Cc2ccccc2)cc1 (stereo not drawn)	-2.8	26	3	1	2.3	36	0	0.0	8	-7
Cc1ccc(-c2cccc(CN3CCN(C4CCN(C(C)C)CC4)C(CCO)C3)c2)o1 (stereo not drawn)	-0.1	-4	9	7	2.2	32	1	0.3	-4	0
CCOc1ccc(N(CC(=O)NCCSCc2ccccc2)S(=O)(=O)c2ccccc2)cc1	4.1	-1	3	7	-3.8	31	nt	1.2	-3	-14

Compound activity (PubChem BioAssay)
